High-throughput results as filed in PubChem BioAssay.
LT uptake inh: qHTS Assay for Anthrax Lethal Toxin Internalization. Cells, anthrax lethal toxin internalization, FRET ratio (460/530). Potency, µM (titrated, usually from 40 µM), for the others: at the top dose activity change, negative = inhibition, hits mostly inhibitors. actives 0.67% (n = 70,000). AID 912, 2007; active = well fitted falling ratio curve with the 530 nm signal flat; inconclusive = other ratio curves, or a change in one channel alone; inactive = flat curves in the ratio and both channels; the % refers to the ratio; further: on the % scale 0 is the no-effect control and ±100 the full control effect; nearly all actives have a fitted effect of over 50% in size; tested in ME-180 cells; beta-lactamase reporter
SmPrx2 inh: Schistosoma Mansoni Peroxiredoxins (Prx2); S. mansoni Prx2 activity coupled to TGR/GSH (TGR is thioredoxin glutathione reductase), NADPH fluorescence loss, qHTS; some inactives read as strong as hits; Potency, µM; Schistosoma mansoni peroxiredoxin 2 (Prx2); AID 448, 2006; actives 0.07% (n = 65,000); active means full or partial inhibition curve with a strong effect at the top dose; inconclusive means weaker partial or single-point curve; inactive means no accepted curve; further: series up to 57 µM; many of its hits are not listed in these tables
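Enzyme mix: 100 uM NADPH, 25 nM TGR, 700 uM GSH, 50 nM Prx2 in 100 mM phosphate pH 7.4, 10 mM EDTA, 0.01% Tween-20. 15 min RT with compound; NADPH/GSH added, H2O2 starts reaction; NADPH fluorescence read 8 min.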
* marks the source's active call; other numbers are inactive results; ? = inconclusive; . = no result given; & = joins results of further samples; [ ] = remark or other dose. Potency means the concentration at half of the fitted maximal effect. The list is partial; the hit share may differ from the screen's.

SMILES	LT uptake inh	SmPrx2 inh
c1ccc(C(c2ccccc2)N2CCN(Cc3nnnn3C3CCCC3)CC2)cc1	?	>57
CCOC(=O)CSc1nc(N)nc(C)c1Br	-7.1%	.
O=C(O)C1C2C=CC(C2)C1C(=O)N1CCN(C/C=C/c2ccccc2)CC1 (centres undefined)	-14.1%	>57
CCc1nc(SCC(=O)NCCc2ccc(OC)c(OC)c2)c2c(=O)n(C)c(=O)n(C)c2n1	6.8%	>57
CCCCCCC(=O)N(O)C1CC(=O)N(Cc2ccccc2)C1=O (centres undefined)	16.6%	>57
Cc1ccc(CSC2=Nc3ccccc3C3=NC(CCC(=O)NCc4ccco4)C(=O)N23)cc1 (centres undefined)	?	>57
COc1ccc(-c2nc(SCC(=O)NCc3ccco3)c(-c3ccccc3)[nH]2)cc1OC	-2.9%	>57
N[C@@H](COP(=O)(O)O)C(=O)O	?	>57
O=c1[nH]nc(Cc2ccccn2)c2ccccc12	-0.4%	>57
COC(=O)c1ccc(OC)c(CSc2nnc(COc3ccc(Cl)cc3)o2)c1	?	>57
COc1ccc(C(c2nnnn2CCc2ccccc2)N2CCN(C)CC2)cc1OC (centres undefined)	-4.9%	>57
O=c1c(=O)n(O)c2ccccc2n1O	-1.2%	>57
C=CCn1c(COc2ccccc2C)nnc1SCC(=O)O	.	>57
Cc1cc(N2CCCC2)n2nc(C)c(-c3ccccc3)c2n1	-7.2%	>57
C#CCn1c(=O)c2c(ncn2C)n(C)c1=O	8.5%	>57
Cc1cc2oc3c(c(=O)c2cc1C)C(c1cccc(Br)c1)N(Cc1ccco1)C3=O (centres undefined)	?	>57
Cc1cccc(-n2c(CNC(=O)COc3ccccc3)nnc2SCC(=O)Nc2nccs2)c1	7.2%	>57
CC1=C(C(=O)OCC2CCCO2)C(c2ccccc2OC(C)C)C2=C(CC(c3ccco3)CC2=O)N1 (centres undefined)	?	>57
Cc1ccc(C(=O)Cn2nnc(-c3ccccc3-n3cnnn3)n2)cc1	8.8%	>57
O=C(c1csnn1)N1CCC2(CCN(Cc3cc(C(F)(F)F)cc(C(F)(F)F)c3)CC2)CC1	-2.2%	>57
COc1ccc2nc3c(cc2c1)c(NC(=O)C1CCCO1)nn3CC(C)C (centres undefined)	?	>57
COC(=O)c1c(NC(=O)COC(=O)Cn2cnc3ccccc32)sc(C)c1C	-8.2%	>57
CCCCC#CC1C=CC(Oc2ccc(OC)cc2)C(CO)O1 (centres undefined)	-3.0%[8 µM]	.
CCCCn1c(C(C)NC(=O)COC)nc2ccccc21 (centres undefined)	-7.5%	>57
COc1cc2[nH]c(=O)n(CCCC(=O)NCCc3ccccc3)c(=O)c2cc1OC	-5.6%	>57
CN1C(=O)C(O)(CC(=O)c2cccnc2)c2ccccc21 (centres undefined)	-16.4%	.
O=C(O)CC(C(=O)NC1CCCCC1)C1CCCO1 (centres undefined)	-6.8%	.
O=S(=O)(NC1CC1)c1ccc(S(=O)(=O)N2CCN3CCCC3C2)cc1 (centres undefined)	2.7%	>57
CCCc1cc(=O)n2[nH]c(-c3cc(OC)c(OC)c(OC)c3)nc2n1	-1.4%	>57
CC(C)Cn1c2c(c(O)c(C(=O)Nc3nccs3)c1=O)CCCC2	9.7%	>57
O=C(O)CCN1C(=O)C2C3C=CC(C3)C2C1=O (centres undefined)	-9.9%	>57
C/C(CCN1CCCCc2nc(C)c(C)cc21)=N\O[C@@H](C)c1cn([C@H](CO)Cc2ccccc2)nn1	3.0%&-11.1%[8 µM]	.
CC1(C)Cc2ccccc2-c2nnc(SCC(=O)N3CCc4ccccc43)n21	-5.8%	>57
CCOC(=O)N1CCC(NC(=O)Cn2cccc2C(=O)c2ccccc2)CC1	?	>57
N#CCSc1nnc(Cc2cccs2)n1C1CCCCC1	-1.8%	>57
OC[C@H]1NC[C@@H](O)[C@@H](O)[C@H]1O	?	>57
CC(=O)c1cc2c(cc1NC(=O)CN1CCN(C(=O)c3ccco3)CC1)OCO2	-6.2%	>57
COc1cccc(CNc2ccc(F)c(Cl)c2)c1O	.	>57
O=P(/C(=N/O)N1CCCCC1)(N1CCOCC1)N1CCOCC1	?	>57
COc1ccc(-n2c(N3CCN(C)CC3)nc3sc4c(c3c2=O)CCCCC4)cc1	3.3%	>57
O=C(COc1ccccc1)Nc1ccccc1C(=O)NCc1ccco1	-3.3%	>57
O=C(c1cc2nc(C3CC3)cc(C(F)(F)F)n2n1)N1CCCC1	-5.5%	>57
COc1ccccc1N1CCN(C(=O)c2ccc(NC(C)=O)cc2)CC1	9.1%	>57
N#CCCn1c(=O)c(-c2ccc(F)cc2)nc2cnc(N3CCNCC3)nc21	-0.4%	>57
CCOC(=O)c1c(C)c(C(=O)NCCCOC)c(C)n1C	8.2%	>57
COc1ccccc1NC(=O)N1CCCC1C(=O)Nc1ccc(NC(C)=O)cc1 (centres undefined)	-8.1%	>57
Cc1noc(C)c1S(=O)(=O)N(CC(=O)NCc1ccc2c(c1)OCO2)c1ccc(C(C)C)cc1	5.01µM*	>57
COc1ccc(N(CC(=O)Nc2ccc(F)c(Cl)c2)S(=O)(=O)c2c(C)noc2C)cc1	?	>57
CCN=C(NCC)SC1CC(=O)N(c2cccc(OCC)c2)C1=O (centres undefined)	-9.0%	>57
COC(=O)[C@H](C)NC(=O)Nc1ccccc1C(F)(F)F	-3.0%	>57
O=C(CN1CCOCC1)Nc1ccccc1NC(=O)C1CCN(c2ncccn2)CC1	3.0%	>57
Cc1ccc(N2CC(C(=O)OCC(=O)C(C)(C)C)CC2=O)cc1C (centres undefined)	0.6%	>57
CC(C)NS(=O)(=O)c1ccc(OCC(=O)Nc2ccccc2F)cc1	-7.3%	>57
Cc1c(CC(C)(C)C(=O)O)n(Cc2ccc(Cl)cc2)c2ccc(F)cc12	?	>57&>57
CC1CCN(c2ncccc2C(=O)O)CC1	-12.9%	>57
COc1cc2c(cc1NC(=O)COC(=O)C1CC(=O)N(Cc3ccco3)C1)oc1ccccc12 (centres undefined)	-3.5%	>57
CC(=O)Nc1ccc2c(c1)nc(CCN1CCN(C)CC1)n2C	1.1%	>57
O=C1CCC(C(=O)Nc2cccc(C(F)(F)F)c2)N1 (centres undefined)	14.7%	.
CCOC(=O)c1sc(NC(=S)n2cc(C)cn2)c(C(=O)OCC)c1C	-9.3%	>57
CCCC(C(=O)NC1CCCCC1)N(Cc1ccco1)C(=O)CNS(=O)(=O)c1ccccc1 (centres undefined)	-1.4%	>57

Following part:
SMILES	LT uptake inh	SmPrx2 inh
NC(=O)c1nn(-c2ccccc2)nc1N	-1.2%	.
CCOC(=O)N1CCC(c2nc3ccccc3[nH]2)CC1	15.3%	>57
O=C(NCCSCc1ccco1)Nc1cccc(Cl)c1	-29.0%	>57
N/C(Cn1nnc(-c2ccccc2)n1)=N\O	-4.2%	>57
C=C(C)COc1ccc(-c2[nH]ncc2-c2ccc(OC)c(OC)c2)c(O)c1	?	>57
COc1cccc(/C(O)=C2/C(=O)C(=O)N(c3cc(C)on3)C2c2cccs2)c1 (centres undefined)	-12.3%	>57
CN1C(C)(C)CCCC1(C)C	-9.9%[3.58 µM]	>57&>57
Cc1ccc(C(=O)OCC(=O)NCc2ccc3c(c2)OCO3)s1	2.0%	>57
c1ccc(CNc2nc3ccccc3n2CCN2CCOCC2)nc1	?	>57
NC(=O)CC1NC(=O)c2ccccc21 (centres undefined)	-8.7%	>57
COc1ccc(OC)c(S(=O)(=O)N(C)CC(=O)N2CCN(c3ccccc3)CC2)c1	1.8%	>57
CCOC(=O)c1c(C)oc2c(F)c(F)c(F)c(F)c2c1=O	?	>57
Cc1ccc(C(=O)Nc2c(C)n(C)n(-c3ccccc3)c2=O)cc1S(=O)(=O)N1CCOCC1	12.9%	>57
O=C(Nc1ccc2nc[nH]c2c1)c1ccco1	24.2%	>57
COCCn1nnnc1CN1CCC(O)(c2cccc(C(F)(F)F)c2)CC1	-20.1%	>57
COC(=O)NC(c1cccc(C)c1)[C@]1(C(C)=O)CCOC1=O (some centres undefined)	-28.3%[8 µM]	.
Cc1nnc(NC(=O)NC(C)N2C(=O)C3C4C=CC(C4)C3C2=O)s1 (centres undefined)	-6.9%	>57
CCOC(=O)C1CCN(C(=O)Nc2ccccc2Cl)CC1	0.6%	.
CCOc1ccccc1NC(=O)CSc1nnc(-c2ccco2)n1Cc1ccco1	?	>57
O=C(CCCSc1nc2ccccc2s1)Nc1nccs1	-3.5%	>57
C[C@@]12C[C@H](O)[C@@H]3[C@H](CCC4=CC(=O)CC[C@]43C)[C@H]1CC[C@@H]2c1csc(-c2ccccc2)n1	?	>57
CCC(=Nc1ccc2c(c1)CCC2)c1c(O)n(C)c(=O)n(C)c1=O	-4.9%	.
O=C(NC1CC2CCCC(C1)N2Cc1cccs1)N1CCOCC1 (centres undefined)	2.3%	>57
O=C(Nc1cccc2cccnc12)c1cccc(N2C(=O)CCC2=O)c1	-3.3%	>57

Quoted from the entries so far (two entries):
SMILES	LT uptake inh	SmPrx2 inh
COCCn1nnnc1CN1CCC(O)(c2cccc(C(F)(F)F)c2)CC1	-20.1%	>57
COC(=O)NC(c1cccc(C)c1)[C@]1(C(C)=O)CCOC1=O (some centres undefined)	-28.3%[8 µM]	.

Continued:
SMILES	LT uptake inh	SmPrx2 inh
c1nc(COc2nsnc2N2CCOCC2)cs1	4.0%	>57
O=C(COc1ccc(Cl)cc1)Nc1ncccn1	2.1%	>57
Cc1nc2ccccc2c(=O)n1NS(C)(=O)=O	-5.7%	>57
O=C(CN1C(=O)NC2(CCCCC2)C1=O)NCCC1=CCCCC1	-10.8%	>57
CCCCc1c(C(=O)O)cc(OC)cc1C(=O)O	?	>57
CCOC(=O)Cc1c(C)nc(-c2ccccc2)[nH]c1=O	-28.7%	>57
c1ccc(CC2CCN(C(c3cccs3)c3nnnn3C3CCCC3)CC2)cc1 (centres undefined)	-10.1%	>57
CCOC(=O)c1sc(N)c(C(=O)OCC)c1COC(=O)C1CC(=O)N(Cc2ccco2)C1 (centres undefined)	12.2%	>57
Cc1cc(C)c2nc(N3CCCC(C(=O)NCCN4CCOCC4)C3)sc2c1 (centres undefined)	4.8%	>57
CCOC(=O)CNC(=O)Nc1cccc(Cl)c1C	8.6%	>57
O=S(=O)(c1cc(F)cc(F)c1)N1CCN(c2ncccn2)CC1	22.4%	>57
O=C(CN1C2CCC1CC(NC(=O)Nc1ccccc1)C2)NCc1ccco1 (centres undefined)	-11.1%	>57
O=C(Cc1ccccc1F)Nc1nc(-c2cccs2)cs1	-9.0%	>57
CCOC(=O)c1sc(NC(=O)CN2CCCC2)c(C(=O)OCC)c1C	13.9%	>57
COc1cc(C(=O)CSc2nnc(-c3ccc(O)cc3)n2CC2CCCO2)ccc1NC(C)=O (centres undefined)	-0.5%	>57
CC1C=CC(C)C(C(=O)O)C1C(=O)O (centres undefined)	-4.7%	>57
N=c1c2c(-c3ccccc3)c(-c3ccccc3)oc2ncn1CCN1CCOCC1	?	.
COc1ccc(CN(Cc2ccccn2)C(=O)CN2C(=O)C(C)Oc3ccccc32)cc1 (centres undefined)	?	>57
Cc1ncoc1C(=O)NCc1ccccc1Cl	?	>57
CN(C)CCCNc1cc(O)c2c(c1O)C(=O)c1ccccc1C2=O	1.9%[8 µM]	>57
O=c1[nH]c2c(cc1CNCCN1CCOCC1)c(-c1cccc(F)c1)nn2-c1ccccc1	-17.1%	>57
COC(=O)[C@H](CCSC)NC(=O)N1CCN(c2cccc(C(F)(F)F)c2)CC1	.	>57
O=C(c1ccc(CS(=O)(=O)c2ccc(Br)cc2)o1)N1CCC2(CC1)OCCO2	-10.9%	>57
CCN(CC)S(=O)(=O)c1ccc2[nH]cc(C(=O)NCCc3ccc(OC)c(OC)c3)c(=O)c2c1	-2.1%	>57
Cc1nonc1NC(=O)CSc1nc2cc(Cl)ccc2c2c1CCCC2	-20.2%	>57
COc1ccc(C(=O)COC(=O)CN2CC(=O)Oc3ccccc32)cc1Br	-11.3%	>57
COc1ccc(NC(=O)N2CCCC3(CCN(C(=O)c4cnccn4)CC3)C2)cc1	-1.4%	>57
COc1ccc(CCNC(=O)CCN2C(=O)COc3ccccc32)cc1OC	-1.2%	>57
COc1ccc(N(C(=O)CNC(=O)c2ccco2)C(C(=O)NC2CCCCC2)c2ccco2)cc1 (centres undefined)	-0.1%	>57
O=C(O)C1CSC2c3ccccc3C(=O)N12 (centres undefined)	5.8%	>57
N#CC1=C(N)N2C(=C(C#N)C13CCCCC3)SC1CCCCC12O (centres undefined)	-7.3%	>57

One compound at a time, as listed above.
O=C(c1cc2nc(C3CC3)cc(C(F)(F)F)n2n1)N1CCCC1 across the screens: LT uptake inh = -5.5%; SmPrx2 inh = >57
CCOC(=O)N1CCC(NC(=O)Cn2cccc2C(=O)c2ccccc2)CC1 across the screens: LT uptake inh = ?; SmPrx2 inh = >57

Four of the compounds above, as labelled records:
N#CC1=C(N)N2C(=C(C#N)C13CCCCC3)SC1CCCCC12O (centres undefined)
  LT uptake inh: -7.3%	SmPrx2 inh: >57
Cc1nnc(NC(=O)NC(C)N2C(=O)C3C4C=CC(C4)C3C2=O)s1 (centres undefined)
  LT uptake inh: -6.9%	SmPrx2 inh: >57
O=C(NC1CC2CCCC(C1)N2Cc1cccs1)N1CCOCC1 (centres undefined)
  LT uptake inh: 2.3%	SmPrx2 inh: >57
COC(=O)[C@H](C)NC(=O)Nc1ccccc1C(F)(F)F
  LT uptake inh: -3.0%	SmPrx2 inh: >57
